TRPV1 potentiator = enhances activation of the human vanilloid receptor TRPV1; potentiation, % at 8.33 µM; actives 0.02% (n = 320,000); Q8NER1; TRPV1-expressing cells, Fluo-8 calcium influx, capsaicin EC20 potentiation; host cell line not named in the record; control for the full effect not named in the record; AID 540277; active means potentiation above 80%; inconclusive means 30% to 80%; inactive means below 30%; further: 0% is about no effect
Target sequence (Q8NER1 whole entry, looked up): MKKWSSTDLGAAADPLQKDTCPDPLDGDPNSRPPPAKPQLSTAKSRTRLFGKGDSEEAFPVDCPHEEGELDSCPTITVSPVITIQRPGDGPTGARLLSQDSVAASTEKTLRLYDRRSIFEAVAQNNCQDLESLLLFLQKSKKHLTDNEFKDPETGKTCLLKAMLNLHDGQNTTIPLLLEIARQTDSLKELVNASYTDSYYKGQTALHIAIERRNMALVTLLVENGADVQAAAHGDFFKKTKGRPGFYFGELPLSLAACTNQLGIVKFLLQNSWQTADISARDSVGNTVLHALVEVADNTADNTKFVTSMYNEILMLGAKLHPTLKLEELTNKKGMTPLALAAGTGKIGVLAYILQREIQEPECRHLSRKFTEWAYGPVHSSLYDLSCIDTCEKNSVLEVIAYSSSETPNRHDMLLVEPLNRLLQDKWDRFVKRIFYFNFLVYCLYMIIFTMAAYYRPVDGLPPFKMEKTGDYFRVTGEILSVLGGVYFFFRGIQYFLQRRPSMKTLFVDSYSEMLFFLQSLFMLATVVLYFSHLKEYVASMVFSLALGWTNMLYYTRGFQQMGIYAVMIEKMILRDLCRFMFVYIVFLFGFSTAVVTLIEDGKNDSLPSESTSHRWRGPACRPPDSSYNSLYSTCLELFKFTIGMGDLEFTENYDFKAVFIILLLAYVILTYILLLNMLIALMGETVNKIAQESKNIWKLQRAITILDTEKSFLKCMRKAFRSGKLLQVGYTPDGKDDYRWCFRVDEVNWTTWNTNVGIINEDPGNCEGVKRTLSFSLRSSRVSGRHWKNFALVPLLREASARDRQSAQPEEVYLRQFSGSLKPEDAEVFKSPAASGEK
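Fluo-8 calcium influx in TRPV1-expressing cells, kinetic read (ex 480/em 520 nm). Compound added and read 3 min for agonist activity, followed by capsaicin at EC20 final and 2 min further read for enhancement.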
Sfp inh = Sfp phosphopantetheinyl transferase inhibition | actives 3.5% (n = 310,000) | Q9F4F7 | Biochemical Sfp PPTase activity, qHTS | Potency, µM, without a hit: max response, negative = inhibition, usual class: inhibitors; active means well fitted inhibition curve with a large enough effect; inconclusive means small, poorly fitted or top-dose-only effect, or another doubt; inactive means no such curve, though single readings can be large or run the other way;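 further: the enzyme is Sfp with the accession as filed and its product quenches rhodamine fluorescence; potency means the concentration at half of the fitted maximal effect; 0% = enzyme reaction without inhibitor and -100% = no enzyme wells; top concentration of the series not given in the record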
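With Hepes-Na pH 7.6 buffer containing 10 mM MgCl2, Sfp (15 nM) modified BHQ-2-YbbR (12.5 uM) using rhodamine-CoA (5 uM). Two reads 30 minutes apart at 525/598 nm yielded each well's rate.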
gsp antag = antagonizes gsp, the McCune-Albright syndrome mutation; gsp-mutant cells, cAMP HTRF, 30 min; control for the full effect not named in the record; actives 0.4% (n = 340,000); AID 624288; Potency, µM (series often up to 76.9 µM), for inactives: at the highest dose activity change, negative = inhibition, most hits filed as inhibitors; active = falling curve of any shape with a large fitted effect; inconclusive = falling curve, mostly with a smaller effect; inactive = flat or rising curve; cell line not stated here;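 further: intracellular cAMP measured with PDE inhibitor Ro 20-1724 present during compound exposure; potency means the concentration at half of the fitted maximal effect; on the % scale 0 is the no-effect control and ±100 the full control effect; nearly all actives have a fitted effect of over 65% in size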
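Cells, 2000/well, grown 16–24 h in DMEM 10% FBS with 0.5 mg/ml G418, then compounds plus […] (300 uM addition stock), 30 min at 37C. cAMP read by HTRF (cAMP-d2 and anti-cAMP antibody-K in lysis buffer) after 30 min RT.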
gsp agonist = activates gsp, the McCune-Albright syndrome mutation | gsp mutant cells, cAMP HTRF, 30 min; control for the full effect not named in the record | Potency, µM (titrated, usually from 76.9 µM), without a hit: at the highest dose activation (cAMP increase), hits mostly activators | actives 0.13% (n = 340,000) | AID 624287; active = well fitted activation curve with a large enough effect; inconclusive = small, poorly fitted or top-dose-only effect, or another doubt; inactive = no such curve, though single readings can be large or run the other way; cell line not stated here;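 further: phosphodiesterase inhibitor Ro 20-1724 added with compounds to block cAMP breakdown; potency means the concentration at half of the fitted maximal effect; nearly all actives have a fitted effect of over 60% in size; about a fifth of the inactives were tested at one dose only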
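Cells in DMEM/10% FBS with G418 were pretreated with compounds in DMSO plus […] (300 uM stock) for 30 min at 37C. cAMP was measured by HTRF (cAMP-d2 plus anti-cAMP antibody-K) after 30 min at room temperature.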
Menin-MLL FL inh = inhibitors of human menin-MLL interaction, wild-type MLL peptide; Fluorescence polarization, fluorescein-MLL peptide displacement from menin; 290,000 tested, under 10 active; FP activity change, % at 61.4 µM; AID 1766; inconclusive = falling polarisation curve, or a change in total fluorescence; inactive = total fluorescence flat and polarisation flat or rising; no compound was filed as active; the % refers to the polarisation; negative = inhibition;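 further: % of control where 0% means no effect; inhibitors lower the polarisation; unlabelled MLL peptide was the positive control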
ClpP mod = qHTS Assay for Activators of ClpP | ATP-dependent Clp protease proteolytic subunit (Bacillus subtilis (strain 168)), P80244 | purified B. subtilis ClpP, FRET peptide cleavage, 20 min | Potency, µM (titrated, usually from 57.5 µM), for inactives: at the top dose activity change, negative = active | actives 1.9% (n = 340,000); active = well fitted falling curve with a large enough effect; inconclusive = small, poorly fitted or top-dose-only effect; inactive = no such curve, though single readings can be large or run the other way; further: potency means the concentration at half of the fitted maximal effect; the source files actives as falling curves though it sought activators and does not explain the sign; nearly all actives have a fitted effect of over 65% in size; many hits overshoot -100%
Target sequence (P80244 whole entry, looked up): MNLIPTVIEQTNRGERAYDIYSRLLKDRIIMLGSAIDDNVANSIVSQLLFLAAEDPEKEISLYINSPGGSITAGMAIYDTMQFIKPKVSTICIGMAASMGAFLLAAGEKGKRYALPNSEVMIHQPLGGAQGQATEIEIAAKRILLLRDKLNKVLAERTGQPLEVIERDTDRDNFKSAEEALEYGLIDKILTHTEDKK
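Buffer: 100 mM Tris/HCl pH8, 100 mM KCl, 0.05% low protease BSA, 2.5% glycerol, 0.01% Tween-20. ClpP 10 microg/mL final; 20 min RT; delta FRET normalized to ADEP and DMSO controls.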
CtBP-E1A inh = CtBP/E1A binding inhibition | AlphaScreen GST-E1A/His-CtBP binding, 1536-well; active compounds read low; control for the full effect not named in the record | activity change, % (test concentration not listed) | actives 0.49% (n = 340,000); in the data active means activity change below about -65%; inconclusive means about -30% to -65%; inactive means above about -30%; further: on the % scale 0 is the no-effect control and ±100 the full control effect
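GST-E1A and His-tagged CtBP (125 nM each as 5X stock) were preincubated with pin-transferred compound for 2 h at 37 °C in the dark, then glutathione donor and nickel acceptor beads were added for 1 h before AlphaScreen reading.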
The depositor's hits bear a star; u = inconclusive; x = no result given; & = joins results of further samples; [ ] = another dose, or the depositor's remark. This is a random part of the collection; about 5.3% have a hit in one of these screens.

The line under a structure holds: Sfp inh, CtBP-E1A inh, Menin-MLL FL inh, gsp antag, ClpP mod, gsp agonist, TRPV1 potentiator
1	O=C(N/N=C/c1ccc(F)cc1)c1c(O)c2ccccc2[nH]c1=O
    7%, -5, 2.9, 11%, 1.8%, -10%, -4
2	Cc1cc(C)n2nc(SCCOc3ccccc3F)nc2n1
    3%, -16, 2.2, -4%, x, -9%[15.4 µM], 1
3	CC(C(=O)Nc1ccccc1Cl)N(c1ccccc1)S(C)(=O)=O (configuration not stated)
    13%, x, -5.1, 5%, x, -1%[15.4 µM], 0
4	CCn1c(C(=O)O)c(S(=O)(=O)c2ccc(Cl)cc2)c2ccccc21
    -1%, 5, 3.2, 8%, -9.4%, u, 3
5	CCCCC1=NN2C(=N)CC(=O)N=C2S1
    6%, -3, 14, -10%, -0.2%, 28%, -8
6	O/N=C/c1ccc(-c2ccccc2OC(F)(F)F)o1
    -19%, 2, 2.4, 1%, -0.7%, 1%[15.4 µM], -12
7	NS(=O)(=O)c1ccc(CCNC(=O)CN2CCC(Cc3ccccc3)CC2)cc1
    6%, -12, 0.4, -3%, x, -1%, 5
8	CCn1c(COc2ccc(C)cc2)nnc1SCC(=O)NNC(=O)c1ccc(OC)cc1
    19%, -6, 4.3, 13%, -3.0%, u, 17
9	CN(C)S(=O)(=O)c1ccc(N2CCCC2)c(C(=O)OCC(=O)NC2(C#N)CCCCC2)c1
    x, 9, x, -17%, -0.4%, -53%[inhibitor], -29
10	NNC(=O)c1ccc(CSc2nc3ccccc3s2)cc1
    6%, 0, 4.6, -1%, x, 1%, -11
11	CCCCn1c(N)c(N(CC(C)C)C(=O)C2CC(=O)N(CCc3ccccc3)C2)c(=O)[nH]c1=O (configuration not stated)
    17%, 2, x, -2%, 2.0%, -1%[15.4 µM], -2
12	Cc1c(C#N)c2ccccc2n1CC(=O)NC(C)c1ccccc1 (configuration not stated)
    15%, 11, 3.1, 11%, -2.2%, 0%, -11
13	COc1ccc(CNCCc2ccc(Cl)cc2)cc1OCc1ccccc1
    -29%, 26, -6.1, 11%, 0.3%, -43%[inhibitor], 7
14	CC(C)CNc1c(N)n(CC(C)C)c(=O)[nH]c1=O
    19%, 9, u, -2%, x, -56%[inhibitor], -1
15	C/C(CCc1ccc2c(c1)OCO2)=N\N=C1\NC(=O)CC(C(=O)Nc2ccccc2)S1 (configuration not stated)
    4%, -2, 1.4, -4%, 0.2%, -2%, -2
16	CCOC(=O)c1ccc(Nc2nc(C)nc3c2nnn3Cc2ccccc2)cc1
    u, x, -2.4, -15%, 4.2%, -14%, -20
17	Cc1ccc(C(=O)NC2(O)C(=O)c3ccccc3C2=O)cc1C
    7%, -20, -0.8, 9%, x, -9%[15.4 µM], 0
18	Cc1ccc(NC(=O)CCC(=O)N2CCC(C)CC2)c([N+](=O)[O-])c1
    6%, -1, x, 11%, -1.4%, -38%[inhibitor], -28
19	COc1ccc(C2/C=C\CN(C(=O)NC34CC5CC(CC(C5)C3)C4)CC(=O)N2Cc2ccc(F)cc2)cc1 (configuration not stated)
    7%&17%, -17, -0.7&-0.6, -16%, -1.9%, x, 2
20	CCn1c(=N)n(CC(=O)c2ccco2)c2ccccc21
    -12%, -10, 0.3, 2%, -4.9%, 9%, -5
21	CC(C)(C)N(CC#CCC(O)(c1ccccc1)C1CCCC1)CCO (configuration not stated)
    u, -10, -2.3, x, x, 4%[15.4 µM], -4
22	Cc1ccc(-c2nc(-c3ccncc3)no2)c(C)c1
    -8%, 21, -1.8, 14%, -0.5%, u, -4
23	COc1ccc(-c2[nH]ncc2CN2CCN(c3ccc(F)cc3)CC2)cc1
    14%, x, 5.5, 6%, -1.5%, 16%, -9
24	COc1ccc(NC(=O)C2CCCN(C(=O)Nc3ccc(F)cc3)C2)cc1 (configuration not stated)
    6%, 1, 2.7, 3%, x, 13%[15.4 µM], -22
25	COc1cccc(-c2sc3ccc(OC)cc3c2C#CCCO)c1
    x, -12, x, -5%, 4.4%, x, -7
26	Cn1cnc2cc(NC(=O)COc3ccccc3)ccc21
    -1%, -2, -7.9, -2%, x, -12%, 1
27	Cc1cc2c(NCc3ccccc3)ncnc2s1
    4%, -6, 3.4, -5%, x, -50%[inhibitor], -7
28	COc1cccc(C(=O)N2c3cc(C)ccc3OCC2C(C)(C)C)c1 (configuration not stated)
    0%, 4, -16, 5%, x, 14%, 20
29	CC1CN(S(=O)(=O)c2cccc(C(=O)N(C)C3CCN(C)CC3)c2)CC(C)O1 (configuration not stated)
    x, x, x, 13%, 0.4%, u, 7
30	Cc1ccc(S(=O)(=O)N2CCN(C(=O)C(C)Cn3cncn3)CC2)cc1C (configuration not stated)
    24%, 11, 1.9, -5%, x, 2%[15.4 µM], 5
31	COc1cccc(OCC(=O)O)c1
    3%, 2, 0.3, -8%, x, 14%[15.4 µM], 2
32	CC(=O)N1N=C(c2cccc(Cl)c2)OC1c1ccc(C(C)C)cc1 (configuration not stated)
    -5%, -1, -1.1, -5%, -7.1%, -9%, 16
33	CC(=O)c1ccc(N2Cc3ccccc3C2=NC(=O)c2cccs2)cc1
    -3%, 0, -8.0, -21%, 5.8%, u, -31
34	Oc1c(Cl)cc(Cl)cc1/C=N/c1nccs1
    50µM*, -24, u, 3%, -1.2%, 20%, 9
35	Cc1nn(-c2ccccc2)c2c1C(O)n1c(nc3ccccc31)S2 (configuration not stated)
    -12%, 10, -0.4, 4%, 1.2%, 21%, -30
36	COc1cc2c(C(=O)N3CCN(C)CC3)c(C)oc2cc1Br
    0%, -1, -0.8, 3%, -1.4%, -10%, 0
37	CC1(C(=O)O)CCC(C(=O)Nc2ccc(OC(F)(F)Cl)cc2)C1(C)C (configuration not stated)
    8%, x, -3.3, -2%, -0.5%, -32%[inhibitor], -2
38	Cc1nc(SCC(=O)NCc2ccc(F)cc2)c2c(=O)n(C)c(=O)n(C)c2n1
    -8%, 5, 0.4, -5%, -0.5%, u, u
39	CC(C)(C)NC(=O)NC(=O)CSc1ccc(S(=O)(=O)N2CCOCC2)cn1
    x, 1, x, 4%, -5.2%, -36%[inhibitor], -9
40	Cc1ccc(C(C)C)c(OCC(=O)c2c(O)c3ccccc3oc2=O)c1
    x, 3, x, 4%, -11%, 0%, x
41	CC(C)C(=O)Nc1ccc(C(=O)N2CCN(C(=O)c3ccco3)CC2)cc1
    u, x, -1.9, x, x, x, -7
42	CCCCn1c(N)c(N(CCOC)C(=O)c2ccc(Br)o2)c(=O)[nH]c1=O
    x, -1, x, 7%, -6.3%, -9%, 2
43	O=C(NCCc1ccc(F)cc1)c1cc2ccccc2oc1=O
    24%, -14, x, 21%, -6.9%, -15%, -5
44	O=C(CCC(=O)N1CCc2ccccc21)Nc1ccccc1
    -10%, 1, 3.4, 14%, 1.5%, -48%[inhibitor], 0
45	CCOC(=O)C1=C(COC(=O)/C=C/c2ccc([N+](=O)[O-])cc2)NC(=O)NC1C (configuration not stated)
    x, -23, x, -4%, 0.6%, 14%, 3
46	O=C1CCC(C(=O)N(Cc2ccco2)C2(C(=O)NC3CCCC3)CCCCC2)N1 (configuration not stated)
    14%, 3, 1.3, 9%, -0.7%, -21%, 10
47	COCCNC(=O)c1ccc(C)c(S(=O)(=O)Nc2ccc(C)cc2)c1
    1%, 3, -0.2, 0%, 0.1%, 4%, 7
48	Nc1nc(OCC2CCCCC2)c2[nH]cnc2n1
    11%&18%, 4, -0.6&3.6, 2%, 1.4%, x, 0
49	Cc1cc2ncn(S(=O)(=O)N3CCCCC3)c2cc1C
    1%, 10, 4.5, -2%, -1.4%, -88%[inhibitor], 1
50	O=C(Oc1ccc([N+](=O)[O-])cc1)c1ccc2ccccc2n1
    u, -6, 0.1, u, -1.9%, -1%, 5

Further records follow:
The line under a structure holds: Sfp inh, CtBP-E1A inh, Menin-MLL FL inh, gsp antag, ClpP mod, gsp agonist, TRPV1 potentiator
51	Nc1ccccc1C#Cc1ccc([N+](=O)[O-])cc1
    x, u, x, 6%, x, u, x
52	O=C(N/N=C/c1ccoc1)c1ccc(Br)cc1
    -7%, -13, 1.7, 2%, -1.0%, -22%, -7
53	O=C(NC1CCCc2ccccc21)C1CCN(S(=O)(=O)c2cccc3nsnc23)CC1 (configuration not stated)
    0%, -3, 2.4, 14%, 0.1%, -20%, 15
54	COc1cccc(C2=CC(=O)CC(C)(C)C2)n1
    x, 11, x, -2%, -4.8%, x, x
55	COc1ccc(-n2c(=O)cc(N3CCN(c4ccccc4)CC3)[nH]c2=O)cc1
    2%, 0, -0.7, -2%, -19%, -42%[inhibitor], 3
56	O=C(c1ccc2nsnc2c1)N1CCN(c2ccc([N+](=O)[O-])cc2)CC1
    7%, x, -4.6, 1%, -0.3%, -7%, -4
57	CCOC(=O)C1(Cc2ccccc2)NC(c2ccccc2F)C2C(=O)N(CC)C(=O)C21 (configuration not stated)
    4%, 2, -0.8, 7%, -0.9%, 4%, -11
58	O=C(c1cccc(F)c1)N1CCN(c2ccc([N+](=O)[O-])c(N3CCCCC3)c2)CC1
    5%, -25, 3.1, -12%, 0.9%, -17%, -14
59	O=C(NCCc1ccccc1)c1ccc(NS(=O)(=O)c2ccc3[nH]c(=O)[nH]c3c2)cc1
    x, -17, x, -9%, -3.0%, 1%[15.4 µM], 1
60	Cc1csc(SCC(=O)Nc2cc(F)ccc2C)n1
    x, 8, x, x, -1.0%, 33%, x
61	CCCCC(=O)O
    x, 2, x, 9%, 0.1%, -127%[inhibitor], x
62	CC1NC(=O)c2cc3ccccc3cc2-n2c1nc1cc(Cl)ccc1c2=O (configuration not stated)
    x, 1, x, x, -9.0%, u, x
